S aureus helic: S. aureus DNA helicase inhibition; inhibition, %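 (tested at about 80 µM)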; actives 0.05% (n = 120,000); purified S. aureus helicase, fluorescence unwinding assay; about half of the hits fall short of the stated cut; AID 485395;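 active = both duplicates at 50% or more, or one of them with a favoured structure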;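 also: 0% = mean of negative control wells and 100% = mean of positive control wells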
MgrA DNA FP: modulators of Staphylococcus aureus MgrA DNA binding. fluorescence polarization. actives 0.13% (n = 84,000). AID 602314. inhibition, %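 (about 10 µg/mL by stock and volumes)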;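 active = above 50% in either of two replicates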;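 also: 0% = protein plus DNA without compound and 100% = DNA alone without protein; higher means less MgrA bound to DNA so lower polarization; one replicate is shown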
Active calls of the source: *; x = no result given.

S aureus helic,MgrA DNA FP,mol
-7.0,1.8,C/C(=N\NC(=O)C(F)(F)F)c1ccccc1O
-13.0,x,Cc1[nH]n2c(=O)cc(-c3ccccc3)nc2c1-c1ccccc1
0.0,5.2,FC(F)(F)c1cc(-c2ccc3c(c2)OCO3)nc(=S)[nH]1
-7.0,x,Cc1ccc(C)n1CCc1ccccc1
8.0,1.3,Cn1c(=N)n(CC(=O)c2ccc(-c3ccccc3)cc2)c2ccccc21
6.0,3.6,O=C(Nc1cccc(C(F)(F)F)c1)c1cccnc1N1CCCC1
8.0,x,NC(=S)c1ccsc1
-9.0,0.5,COc1ccc(S(=O)(=O)NCc2ccc(C(=O)N3CC(C)CC(C)C3)cc2)cc1 (configuration not stated)
-3.0,-0.8,Cc1nnc(C)n1/N=C/c1ccccn1
3.0,-3.0,CNC(=O)c1ccc(Cn2c(SCc3ccc(C)cc3)nc3ccncc32)cc1
x,3.0,N=C(N)c1ccc(C(F)(F)F)cc1
0.0,-3.1,Cc1ccccc1OCc1nnc(SCC(=O)N(Cc2ccccc2)C(C)(C)C)o1
x,-1.7,COc1cc(N(C)C)c([N+](=O)[O-])cc1C(=O)NCCN1CCN(c2ccccc2)CC1
9.0,x,COc1ccc(CN2C(=O)c3cccnc3C2=O)cc1S(=O)(=O)NC1CC1
13.0,-1.6,CCOc1ccc(C=Nc2ccccc2)cc1
15.0,x,O=C(c1ccccc1)N1CCN(C(=O)c2ccc(OC(F)(F)F)cc2)CC1
13.0,x,CC1CCCCN1C(=O)c1ccc2c(c1)C(=O)N(CCC1=CCCCC1)C2=O (configuration not stated)
x,-1.6,COc1ccc(N/C=C(\C#N)c2ccc(Cl)cc2)cc1
-10.0,x,N#Cc1ccccc1OCC(=O)c1cccs1
5.0,x,O=C(Nc1cccnc1)c1cccc(S(=O)(=O)NCc2cccnc2)c1
7.0,x,O=C(O)C(=Cc1ccc(-c2cccc(Cl)c2)o1)C(=O)O
2.0,0.3,COc1ccc(OCCCN2C(=O)NC(C)(C)C2=O)cc1
-8.0,-1.1,CC(NC(=S)NC(=O)c1cccs1)C12CC3CC(CC(C3)C1)C2 (configuration not stated)
6.0,1.8,CCN(Cc1ccccc1)C(=O)c1ccccc1-c1nc(-c2cccc(C)c2)no1
-31.0,x,Cc1cc(C)c2oc(-c3cc(NC(=O)c4ccc(Br)o4)ccc3O)nc2c1
9.0,0.1,COc1ccc(C(=O)C[n+]2cc(-c3ccc(OC)cc3)n3c2CCCCC3)cc1
10.0,x,NC(=O)COC(=O)c1ccc(Oc2ccccc2)cc1
x,-0.9,CSc1nc2nc(-c3ccc4c(c3)CCC4)ccn2n1
-186.0,x,CCCCn1nnnc1COC(=O)/C(C#N)=C/c1ccc(N(C)C)cc1
12.0,4.5,C=CCN(CC=C)S(=O)(=O)c1nc2nc(C)cc(C)n2n1
-15.0,3.0,Cc1cc(=O)oc2c3c(ccc12)OCC3=O
x,3.4,COc1ccc(C2CC(=O)C3=C(C2)Nc2ccccc2NC3c2ccc(SC)cc2)cc1OC (configuration not stated)
x,7.6,COC(=O)C1=C2CC=CC2C(C(=O)OC)C1=O (configuration not stated)
-4.0,-3.1,CCn1c(SCC(=O)N2CCc3ccccc3C2)nnc1C(C)NC(=O)c1ccccc1 (configuration not stated)
12.0,x,COc1ccc(C)cc1C(=O)C1CC(C(=O)O)C(C)(C)C1C (configuration not stated)
x,-3.0,CC(C)S(=O)(=O)c1cscc1NC(=O)c1ccc(-c2cc(C(F)(F)F)nn2C)s1
1.0,-1.4,CCOc1ccc(NCCC(=O)c2ccc3c(c2)OCO3)cc1
-7.0,-0.8,O=C(c1cccc(S(=O)(=O)N2CCCC2)c1)N1CCCc2ccccc21
19.0,4.3,Cc1ccc(NC(=O)c2ccco2)cc1NC(=O)CSc1ncnc2sc3c(c12)CCC3
-6.0,1.2,CN1C(=O)c2ccccc2C(C(=O)N2CCCCC2)C1c1cccs1 (configuration not stated)
15.0,2.6,O=C(CN1CCN(c2ccccc2)CC1)NCc1ccccc1
33.0,x,O=C(O)c1ccc2c(c1)OCCCO2
13.0,x,Cn1c(=O)c2c(nc(NC3CCCCC3)n2Cc2ccccc2F)n(C)c1=O
12.0,x,O=C(c1ccccc1)C1CN(Cc2ccccc2)CCC1(O)c1ccccc1 (configuration not stated)
x,0.2,Nc1cc(-c2ccc(Cl)cc2)nc(N)n1
5.0,-1.3,CC(C)(CO)NC(=O)c1ccc(C(C)(C)C)cc1
x,-2.0,COC(=O)c1sc(N2CCCC2)c(C#N)c1-c1cccs1
-26.0,x,CCCNC(=O)CN1Cc2ccccc2C1=O
-4.0,x,O=C(NCCCc1ccccc1)c1ccc(CSc2nc3ccncc3[nH]2)cc1
-9.0,x,CCn1c(CSc2nc3ccc(C)cc3[nH]2)nc2cc(S(=O)(=O)N(C)C)ccc21

Additional results:
S aureus helic,MgrA DNA FP,mol
-17.0,x,Cc1ccc(N(C(=O)c2ccc3c(c2)OCO3)C2C=CS(=O)(=O)C2)cc1 (configuration not stated)
13.0,x,Cc1cccc(-n2nc3c(c2NC(=O)COc2ccc(Cl)cc2Cl)CS(=O)C3)c1C (configuration not stated)
9.0,-4.2,COc1ccc(-c2c(-c3ccc(O)cc3O)n[nH]c2C)cc1OC
x,4.4,COC(=O)c1sccc1Oc1ccc(C(F)(F)F)cc1N1C(=O)C=CC1=O
6.0,0.3,COc1c(O)cnn(C(C)(C)C)c1=O
-8.0,x,O=C(OCc1cc(Cl)ccc1OC(F)F)c1ccco1
x,-5.4,O=C(Cn1cc(-c2ccccc2)nc1SCc1ccccc1)c1ccccc1
9.0,x,O=C1c2ccccc2C(=O)N1COc1ccc(F)cc1Br
-5.0,-0.2,CC(OC(=O)c1ccc2ccccc2n1)C(=O)c1ccccc1 (configuration not stated)
6.0,x,O=C(COc1ccc(Oc2ccccc2)cc1)NCc1ccccc1

The last three records of the section above are carried over, then new ones follow.
S aureus helic,MgrA DNA FP,mol
9.0,x,O=C1c2ccccc2C(=O)N1COc1ccc(F)cc1Br
-5.0,-0.2,CC(OC(=O)c1ccc2ccccc2n1)C(=O)c1ccccc1 (configuration not stated)
6.0,x,O=C(COc1ccc(Oc2ccccc2)cc1)NCc1ccccc1
x,0.9,CCOC(=O)C1=C(C)N=c2s/c(=C\c3ccc(N4CCCCC4)o3)c(=O)n2C1c1cc(OC)ccc1OC (configuration not stated)
22.0,-1.8,O=C(c1cc2ccccc2oc1=O)N1CCN(Cc2ccc(Cl)cc2)CC1
x,2.9,CCSc1nnc2c(n1)OC(c1ccccn1)Nc1ccccc1-2 (configuration not stated)
13.0,4.6,N/C(=N\c1nc2c(c(=O)[nH]1)CCC2)Nc1ccccc1C(F)(F)F
-2.0,-2.6,O=C(NC(Cc1ccccc1)C(=O)O)c1ccco1 (configuration not stated)
x,3.0,O=C(OCc1ccccc1)c1ccccc1
11.0,0.7,CCCCN(C)C(=O)Cc1c(C(=O)O)[nH]c2ccc(Cl)cc12
11.0,x,CCSC1=NC2(CCCCC2)Nc2ccccc21
-3.0,2.6,CCOc1ccc2[nH]c(=O)c(CN(CCOC)C(=O)NC3CCCCC3)cc2c1
1.0,0.1,CCOc1ccc(N(C)Cc2cc(=O)oc3ccc(OC)cc23)cc1
-24.0,0.0,CN(C)c1ccc(C2C=C(c3ccccc3)Nc3ncnn32)cc1 (configuration not stated)
17.0,0.2,COc1cc(S(=O)(=O)N2CCCCCCC2)ccc1-n1cnnn1
x,-0.5,Clc1cc(Cl)cc(Oc2nc(-c3ccccc3)ns2)c1
-4.0,x,Cc1noc(C)c1COC(=O)c1ccc2[nH]c3c(c2c1)CCCC3
x,-1.1,O=c1oc2ccccc2c(Cl)c1Cc1ccccc1
26.0,x,O=C(NCN1CCN(CNC(=O)c2ccccc2)CC1)c1ccccc1
x,-0.5,Cc1c(Br)c([N+](=O)[O-])nn1CC(=O)Nc1sc2c(c1C(=O)OC(C)C)CCC(C)C2 (configuration not stated)
4.0,x,COc1cc(Cl)c(C)cc1NCC(=O)N1CCOCC1
13.0,4.1,COc1ccc(-c2nn(CN3CCC(C(N)=O)CC3)c(=S)n2-c2ccccc2)cc1OC
4.0,x,CC(C(=O)NCc1ccccc1)N1CCc2ccccc2C1 (configuration not stated)
8.0,4.7,Oc1c(CN2CCOCC2)ccc(CN2CCOCC2)c1O
-1.0,x,CCCOc1cccc(C(=O)Nc2ccc(Cc3ccncc3)cc2)c1
12.0,x,O=C1CCC(=O)N1CC(=O)N(c1ccccc1)c1ccccc1
x,-0.8,COc1cccc(OC)c1C(=O)OCC(=O)c1ccccc1
10.0,8.2,O=C(O)c1cc(C23CC4CC(CC(C4)C2)C3)ccc1O
0.0,-0.5,CCOC(=O)c1[nH]c(=O)[nH]c1COC(=O)c1cc2ccccc2o1
18.0,1.0,C=CCNC(=O)c1ccccc1NC(=O)CC
10.0,-0.7,COc1ccc(OCc2nc(N)nc(Nc3ccc(C)cc3)n2)cc1
21.0,x,CCC(C)NC(=O)c1ccccc1NC(=O)C1=CSCCO1 (configuration not stated)
5.0,7.8,Cc1ccccc1C1C(C#N)=C(N)NC(S)=C1C#N (configuration not stated)

Among those listed so far, six have a COOH group:
S aureus helic,MgrA DNA FP,mol
7.0,x,O=C(O)C(=Cc1ccc(-c2cccc(Cl)c2)o1)C(=O)O
12.0,x,COc1ccc(C)cc1C(=O)C1CC(C(=O)O)C(C)(C)C1C (configuration not stated)
33.0,x,O=C(O)c1ccc2c(c1)OCCCO2
-2.0,-2.6,O=C(NC(Cc1ccccc1)C(=O)O)c1ccco1 (configuration not stated)
11.0,0.7,CCCCN(C)C(=O)Cc1c(C(=O)O)[nH]c2ccc(Cl)cc12
10.0,8.2,O=C(O)c1cc(C23CC4CC(CC(C4)C2)C3)ccc1O

More structures
S aureus helic,MgrA DNA FP,mol
19.0,x,CCOC(=O)C1CCCN(C(=O)Cn2nc(C)n3nc(-c4ccc(OC)cc4)cc3c2=O)C1 (configuration not stated)
-3.0,x,COc1ccc2c(c1)c1ncn(C)c(=O)c1n2Cc1ccccc1
4.0,x,CCOC(=O)N1CCN(C(=S)Nc2ccc(OC(F)F)cc2)CC1
x,-1.8,O=S(=O)(NCCc1c[nH]c2ccccc12)c1cccc2nsnc12
x,4.6,O=c1cc(O)n(Cc2ccco2)c(=S)[nH]1
-18.0,x,Cc1sc(/N=C/c2ccc(O)cc2)c(C#N)c1C
-2.0,x,CNCc1ccc(C)cc1C
14.0,x,CSc1ccc(C2N=C(c3ccccc3)NO2)cc1 (configuration not stated)
8.0,x,O=C(O)Cc1cc2c(cc1Br)OCCO2
-11.0,x,c1ccc2nc3c(nc2c1)oc1ccccc13
10.0,x,O=C(NCCCSc1ccccn1)Nc1nccs1
x,-2.1,CC(C)(C)C(=O)OC/C(N)=N/OC(=O)c1cccs1
5.0,x,Clc1ccc2c(Sc3nncn3-c3ccccc3)ccnc2c1
x,-1.4,CCc1c(O)c(Cc2ccccc2)c(=O)n(-c2nccs2)c1-c1ccccc1
-4.0,9.0,CC(C)NC(=O)c1cccc2sc(N3CCCc4ccccc43)nc12
16.0,x,CCc1ccc2c(CC(=O)N3CCN(S(=O)(=O)c4ccc5c(c4)OCCO5)CC3)coc2c1
6.0,-3.6,O=C(O)c1ccccc1C(=O)OCc1ccccc1
-8.0,x,NC(=O)NC(=O)CSc1n[nH]c(-c2cccs2)n1
1.0,0.8,COc1ccc(N2C(=O)CC(Cc3ccccc3)C2=O)cc1 (configuration not stated)
7.0,-0.1,O=C1c2ccccc2C(=O)N1CCCn1ccnc1
9.0,0.8,CC(=O)Oc1ccc2cc(-c3ccc4c(c3)OCCO4)c(=O)oc2c1
x,-0.6,S=C(NNc1ccccc1)Nc1ccccc1Cl
x,-0.9,CCn1nc(C)cc1C(=O)Sc1ccc(C)cc1
x,-0.1,COc1cc(-c2cc(-c3ccccc3)nc3sc(C(=O)O)c(N)c23)cc(OC)c1OC
x,1.6,CCc1cc2c(cc1C(=O)CSc1ncccc1C(=O)O)C(C)(C)CCC2(C)C
12.0,-1.3,NNC(=O)CCCSc1nc2ccccc2s1
x,2.4,O=S(=O)(c1ccccc1)N(Cc1ccccn1)Cc1ccccn1
0.0,-0.8,CN(C)C(=O)COc1cc2oc(=O)c3c(c2cc1Cl)CCC3
-7.0,-0.1,c1ccc(-c2[nH]ncc2-c2nc3ccccc3[nH]2)cc1
-3.0,2.0,NC(=O)CSc1nc(-c2ccccc2Cl)ns1
11.0,x,COC(=O)C1CCN(c2cc(C)c3cccc(C(C)C)c3n2)CC1
13.0,x,Cc1n[nH]c(C)c1CCCCCOc1ccccc1
x,1.4,Cc1ccccc1NC(=S)NCc1cccnc1
4.0,1.5,O=C(O)CNC(=O)Cn1cnc2sc3c(c2c1=O)CCCC3
2.0,x,NC(=O)CCS(=O)(=O)c1ccccc1
x,0.3,CC1=NN(C(=O)C2CC2)C(=O)C1Cc1ccc(F)cc1 (configuration not stated)
x,2.4,CCN(CC)c1ccc(C2CC(c3ccc(C)cc3)=NN2C(=O)CCC(=O)O)cc1 (configuration not stated)
x,2.8,O/N=C/c1ccc(Cl)s1
-34.0,0.1,CN(C)c1ccc(/C=c2/sc3nnc(-c4ccccc4)n3c2=O)cc1
-24.0,-3.2,Cc1cc(C(F)(F)F)c2c(N)c(C#N)sc2n1
7.0,x,COC(=O)c1ccsc1NC(=O)c1cccc(S(C)(=O)=O)c1
6.0,-1.4,C=CCSC1=C(C#N)C(c2ccc(OC)cc2)CC(=O)N1 (configuration not stated)
2.0,x,Cc1ccc(OCC(=O)C(C#N)c2nc3ccccc3[nH]2)cc1 (configuration not stated)
-9.0,-2.0,CCC1Oc2ccccc2N(CC(=O)N2CCOCC2)C1=O (configuration not stated)
14.0,5.1,CCN(CC)c1ccc(C(=O)N=c2sc3c4ccccc4ccc3n2C)cc1
1.0,x,COC(=O)C1=C(C)NC(C)=C(C(=O)OC)C1C(=O)OCCCn1c(=O)[nH]c2ccccc21
-37.0,x,CC(C)(C)c1ccc(C(=O)NNc2cc(N3CCOCC3)nc(N3CCOCC3)n2)cc1

Assay outcomes deposited in PubChem by ICCB-Longwood Screening Facility, Harvard Medical School.

These rows are one share of the data; the hit share may differ from the screen's.
